Screens (PubChem BioAssay)
ALR H2O2 inh: blocks human ALR sulfhydryl oxidase activity; P55789; purified ALR, DTT oxidation, H2O2 HRP-luminol luminescence; inhibition, % (no concentration beside the values); 290,000 compounds, 3.8% hits; AID 485317;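 active = mean and each replicate at 75% or more; inconclusive = only one of the two met; inactive = neither met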;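 note: stock transfer was 7.5 nL into about 7.5 µL; 0% = neutral wells and 100% = wells with inactivated enzyme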
Target sequence (P55789 whole entry, looked up): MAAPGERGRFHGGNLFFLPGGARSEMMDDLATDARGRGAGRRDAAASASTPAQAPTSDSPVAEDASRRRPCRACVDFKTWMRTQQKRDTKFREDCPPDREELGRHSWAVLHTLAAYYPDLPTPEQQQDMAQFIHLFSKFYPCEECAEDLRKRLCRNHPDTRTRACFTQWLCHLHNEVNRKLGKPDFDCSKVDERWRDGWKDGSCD
Ecoli growth: inhibitors of Escherichia coli growth. OD600, 23 h; stronger effect = lower value. AID 1053175. 330,000 compounds, 0.21% hits. OD600 absorbance (concentration not given with the values);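 active = OD600 absorbance below the run mean of sample wells minus 3.6 SD, in any replicate, cut at about 0.56 in these data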;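 note: stock transfer was 300 nL into about 60 µL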
Vif TR-FRET: inhibitors of Vif binding to APOBEC3G peptide, primary screen, biochemical, TR-FRET, GST-Vif 1-94, biotin-A3G peptide, dose response retest (AID 1117319). TR-FRET GST-Vif / biotin-A3G peptide binding; higher % means a stronger effect; test concentration not given here; strong numbers were not always called active. one-dose inhibition, %; IC50 in µM for titrated hits. 260,000 compounds, 0.57% hits;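 active = above the screen mean plus three standard deviations and confirmed in dose response; inconclusive = results disagree or hit not tested in dose response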;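 note: Vif residues 1-94 fused to GST binding biotinylated APOBEC3G peptide 110-148; 0% = full assay without inhibitor and 100% = GST in place of GST-Vif; retest series ran down from 100 µM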
HNF4A DNA FP: change in binding of human HNF4 alpha to DNA | AID 1224865 | HNF4a-FITC DNA binding, fluorescence polarization, 1 h | 360,000 compounds, 0.3% hits | activity change, % at 10 µM; in the data active = activity change above about 30%, passing the limit was not always enough;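 note: controls were the assay level and a saturating level of protein; the project sought stronger binding though the title names inhibitors; some compounds called inactive have numbers as strong as hits; positive values seem to mean higher polarization but the record does not say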
AF4-AF9 inh: MLL-AF4/AF9 protein interaction inhibition; P42568; AlphaScreen, biotin-AF4 peptide binding to FLAG-AF9; inhibition, % at 10 µM; 350,000 compounds, 0.47% hits;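 active = every replicate reaching a set inhibition limit, whatever the replicate mean, cut at about 25% in these data; inconclusive = mean inhibition reaches that limit but some replicates miss it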;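 note: 0% = plate neutral control median and 100% = total signal loss; the record names both 10 and 1 µM as test concentration; the first replicate is given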
Target sequence (P42568 whole entry, looked up): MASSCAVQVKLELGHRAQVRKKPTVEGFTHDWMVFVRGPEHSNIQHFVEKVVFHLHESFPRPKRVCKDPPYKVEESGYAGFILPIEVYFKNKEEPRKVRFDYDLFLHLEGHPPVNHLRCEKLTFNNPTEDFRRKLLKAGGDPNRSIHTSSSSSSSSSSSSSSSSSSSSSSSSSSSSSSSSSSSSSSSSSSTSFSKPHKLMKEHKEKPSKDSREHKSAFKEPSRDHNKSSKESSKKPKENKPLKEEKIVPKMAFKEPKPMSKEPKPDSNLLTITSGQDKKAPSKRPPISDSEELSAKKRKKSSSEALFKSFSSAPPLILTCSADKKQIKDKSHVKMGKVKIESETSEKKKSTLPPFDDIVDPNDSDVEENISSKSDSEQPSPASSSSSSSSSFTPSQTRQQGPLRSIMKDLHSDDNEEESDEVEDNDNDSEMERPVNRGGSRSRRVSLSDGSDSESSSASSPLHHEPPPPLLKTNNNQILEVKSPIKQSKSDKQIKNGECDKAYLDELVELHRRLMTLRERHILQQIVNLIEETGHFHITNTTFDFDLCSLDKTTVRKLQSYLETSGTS
FGF22 binding: binders of recombinant human FGF22 by thermal shift; Q9HCT0; SYPRO orange fluorescence; percent of sucrose octasulfate shift, DMSO zero; calls only at 9.99 µM; 340,000 compounds, 1.5% hits;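 active = melting point raised past a set limit in the mean and every replicate; inconclusive = no clear call; three in four hits are not shown here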
Target sequence (Q9HCT0 whole entry, looked up): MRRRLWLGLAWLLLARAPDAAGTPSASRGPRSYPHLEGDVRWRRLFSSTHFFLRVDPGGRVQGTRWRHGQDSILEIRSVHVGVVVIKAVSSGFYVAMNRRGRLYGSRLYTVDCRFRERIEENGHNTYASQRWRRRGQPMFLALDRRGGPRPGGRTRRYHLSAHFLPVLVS
Ecoli rRNA inh: inhibits bacterial ribosomal RNA function over humanized ribosomes; E. coli WT GFP vs humanized-ribosome RFP mutants, fluorescence, 24 h; stronger effect = lower value; DMSO median 0, no signal -100; GFP signal change (wild-type ribosome), % (test concentration not listed); 350,000 compounds, 1.6% hits;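 active = significant combined selectivity score with lowered wild-type GFP, culture density cut under 30%, mutant RFP and density less affected; inactive = any of these conditions unmet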; note: one replicate is shown; some compounds called inactive have numbers as strong as hits
Ecoli rRNA inh OD600: second read-out of Ecoli rRNA inh, no call of its own (marks repeat the call); OD600 change, %; measured here: OD600 growth;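 optical density of the mix in the first replicate; 0 = DMSO median and -100 = no signal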
Ecoli rRNA inh RFP: recorded beside Ecoli rRNA inh, whose call it bears; RFP signal change, %; measured here: RFP humanized mutant strains;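 first replicate; 0 = DMSO median and -100 = no signal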
* = called active by the depositor; i = inactive; u = inconclusive; x = no result given; & = joins results of further samples. These rows are one share of the data, so the mix of outcomes need not match the whole.

Ecoli rRNA inh OD600,Vif TR-FRET,HNF4A DNA FP,Ecoli rRNA inh RFP,ALR H2O2 inh,FGF22 binding,Ecoli rRNA inh,AF4-AF9 inh,Ecoli growth,mol
18,x,-0.2,1.1,-11,i,10,0.0,0.67,CSCC[C@H](NC(=O)OC(C)(C)C)C(=O)N1CCC(C(=O)N[C@@H](Cc2c[nH]c3ccccc23)C(=O)O)CC1
7,1%,1.1,-0.5,x,i,-1,-4.8,0.69,CCc1ccc(NC(=O)N2CCC(c3ccccc3)C2)cc1 (centres undefined)
-26,x,-0.4,2.7,-1,i,-6,2.1,0.7,Cc1cc(C)c(S(=O)(=O)N2CCOCC2)c(C)c1N(C)S(=O)(=O)c1ccccc1
-16,x,-0.2,4.3,-2,i,6,0.7,0.68,O=C(Cn1ccc2cc(S(=O)(=O)N3CCCCC3)ccc21)NCc1ccccc1F
5,5%,3.7,1.7,x,i,0,-2.0,0.65,O=C1c2ccccc2C(O)N1Cc1cccs1 (centres undefined)
-4,9%,3.6,-1.7,-3,i,-5,1.4,0.7,CCOc1ccc(NC(=S)N(CCc2ccncc2)C(C)C)cc1
x,10%,0.0,x,-4,x,x,x,0.65,Cn1c(-c2ccc3ccccc3n2)nc2cnccc21
1,x,x,-0.4,x,i,-4,0.0,x,Cc1ccc(S(=O)(=O)N[C@H]2C=C[C@@H](CC(=O)NC3CCCCC3)O[C@H]2CO)cc1
4,1%,-3.3,-2.9,16,i,1,-9.9,0.67,O=C(CN1CCN(c2ccc(F)cc2)CC1)c1ccc(O)cc1O
1,-4%,-0.9,5.1,-15,i,-3,-3.0,0.68,Cc1ccc(S(=O)(=O)N2CCCCC2)cc1C(=O)OCC(=O)N1c2ccccc2NC(=O)C1(C)C
x,x,-0.5,x,-31,i,x,-1.7,0.7,CCc1cc(C(=O)Nc2ccccc2N2CCOCC2)sc1C
2,-6%,-0.2,-1.3,-4,i,4,-0.2,x,Cc1cc(C)nc(N/C(=N/S(=O)(=O)Cc2ccccc2)Nc2ccccc2)n1
3,x,x,-1.9,x,i,-2,2.8,x,C[C@@H]1CCCCO[C@H](CN(C)C(=O)Nc2ccccc2)[C@H](C)CN([C@@H](C)CO)C(=O)c2cc(N(C)C)ccc2O1
x,-1%,2.4,x,-12,x,x,x,0.64,CC1=C(C(=O)Nc2ccccc2)C2(CCCCC2)C(C#N)=C(SCC(N)=O)N1
8,x,0.9,1.6,99*,i,19,0.4,0.69,COc1ccc(NC2CCCN(C(=O)Cn3ccc(C)n3)C2)cc1OC (centres undefined)
17,0%,-0.9,0.2,16,i,17,-0.3,0.72,COc1ccc(/C=C2/C(=O)ON=C2C)cc1Cl
x,15%,-4.7,x,8,x,x,x,0.74,CCCc1cc(=O)n2[nH]c(NCc3c(F)cccc3Cl)nc2n1
9,-6%,-0.9,1.2,1,i,-2,-0.5,0.64,Clc1cccc(Cl)c1-c1noc(-c2ccno2)n1
3,x,x,2.7,x,i,5,-3.0,x,COc1ccc(CN(C)C[C@@H]2OCCCC[C@H](C)Oc3ccc(NC(=O)Nc4c(C)noc4C)cc3C(=O)N([C@H](C)CO)C[C@H]2C)cc1
20,1%,-2.1,5.2,x,i,5,-2.7,x,S=C1SCN(Cc2ccccc2)CN1Cc1ccco1

Pulled by compound from the list above (two):
Ecoli rRNA inh OD600,Vif TR-FRET,HNF4A DNA FP,Ecoli rRNA inh RFP,ALR H2O2 inh,FGF22 binding,Ecoli rRNA inh,AF4-AF9 inh,Ecoli growth,mol
1,-4%,-0.9,5.1,-15,i,-3,-3.0,0.68,Cc1ccc(S(=O)(=O)N2CCCCC2)cc1C(=O)OCC(=O)N1c2ccccc2NC(=O)C1(C)C
9,-6%,-0.9,1.2,1,i,-2,-0.5,0.64,Clc1cccc(Cl)c1-c1noc(-c2ccno2)n1

The list goes on.
Ecoli rRNA inh OD600,Vif TR-FRET,HNF4A DNA FP,Ecoli rRNA inh RFP,ALR H2O2 inh,FGF22 binding,Ecoli rRNA inh,AF4-AF9 inh,Ecoli growth,mol
x,u,-2.3,x,0,x,x,x,0.71,CCOC(=O)C(CC)Sc1nnc(COc2ccc(C)cc2)n1-c1ccccc1 (centres undefined)
15,-13%,1.3,3.9,4,i,11,-3.0,0.69,CCOC(=O)c1cc(C)n(-c2ccccc2)c1C
x,x,2.6,x,x,i,x,0.8,x,Clc1cccc(Cc2c(-c3ccco3)nc3c4ccccc4ccn23)c1
x,7%,-0.8,x,-1,x,x,x,0.68,Cc1cccc(OCC(=O)O/N=C(\N)c2ccccn2)c1C
6,30%,0.7,-1.7,99*,i,4,0.3,x,C/C(=N\Nc1ccccc1)c1c(O)cc(C)oc1=O
x,x,-1.8,x,33,i,x,-2.2,0.78,COc1ccc2c(c1)c(=O)oc1cc(OCC(=O)NCC3CCC(C(=O)O)CC3)ccc12 (centres undefined)
0,x,x,-3.3,x,i,-2,-1.1,x,CC=Cc1ccc2n(c1=O)C[C@H]1[C@H](CO)[C@@H](C(=O)NCCC)[C@@H]2N1CC1CC1 (mixture of isomers)
4,2%,-1.1,-4.0,-2,x,4,x,0.72,Cc1cccc(NC(=O)CSc2n[nH]c(-c3ccncc3)n2)c1
2,x,2.7,-1.9,2,i,3,-2.2,0.72,CC(NC(=O)c1cccnc1Sc1ccccc1)c1ccc(S(N)(=O)=O)cc1 (centres undefined)
x,-6%,-2.3,x,-1,x,x,x,0.7,CC(=O)c1ccc(NC(=O)CCC(=O)OCC(F)(F)C(F)F)cc1
-74,x,x,-29,-1,i,-47,-3.2,0.6,CCn1cc(C(=O)O)c(=O)c2cnc(N3CCN(C(=S)Nc4ccc(F)cc4)CC3)nc21
7,x,4.6,0.8,-16,i,-1,3.9,0.67,CC(C)N1CC(C(=O)Nc2ccc(F)c(Cl)c2)CC1=O (centres undefined)
-8,1%,0.1,1.6,31,i,-12,-6.4,0.69,COC(=O)C(C)Oc1ccc(-c2nccc(-c3ccc(F)cc3)n2)cc1 (centres undefined)
-13,1%,2.9,0.5,x,i,-7,-3.8,0.74,CCOC(=O)c1c2n(c3ccc(OC(C)=O)cc13)CCC2
9,15%,2.4,2.8,2,i,10,2.6,x,COc1ccc(C(=O)Nc2ccc(N3CCN(C)CC3)cc2)cc1OC
17,-37%,-1.9,3.5,0,i,19,-2.0,0.69,O=C(NCC1CCCO1)c1cc(-c2ccccc2)nc2ccc(Br)cc12 (centres undefined)
3&-4,x,3.5,10.0&2.0,x,i,5&-1,-0.4&13&3.3,x,C[C@@H]1CN([C@@H](C)CO)C(=O)CCCn2nncc2CO[C@@H]1CN(C)C(=O)Nc1ccc(N2CCCCC2)cc1
5,2%,-3.6,-0.4,-8,i,-3,-1.3,0.65,CCOc1ccc(CCNC(=O)c2cccc(-n3cnnn3)c2)cc1OCC
x,-7%,2.2,x,12,x,x,x,0.72,C/C(Nc1ccc(C)cc1)=C(/C#N)C(N)=O
-26,x,5.2,-4.0,46,i,-29,-1.5,0.7,O=C(CSc1cccc[n+]1[O-])c1ccccc1Br

Whole records from above. Order of values: Ecoli rRNA inh OD600	Vif TR-FRET	HNF4A DNA FP	Ecoli rRNA inh RFP	ALR H2O2 inh	FGF22 binding	Ecoli rRNA inh	AF4-AF9 inh	Ecoli growth
Cc1cccc(OCC(=O)O/N=C(\N)c2ccccn2)c1C is listed with x	7%	-0.8	x	-1	x	x	x	0.68
Cc1cccc(NC(=O)CSc2n[nH]c(-c3ccncc3)n2)c1 is listed with 4	2%	-1.1	-4.0	-2	x	4	x	0.72

New compounds follow
Ecoli rRNA inh OD600,Vif TR-FRET,HNF4A DNA FP,Ecoli rRNA inh RFP,ALR H2O2 inh,FGF22 binding,Ecoli rRNA inh,AF4-AF9 inh,Ecoli growth,mol
-6,2%,0.3,-1.8,x,i,-14,7.7,x,O=C(Nc1ccc(S(=O)(=O)N2CCOCC2)cc1)c1ccc(Cl)c([N+](=O)[O-])c1
x,3%,2.8,x,99*,i,x,-1.8,0.69,Cc1ccc(NC(=O)COC(=O)c2ccc(NC(=O)CC#N)cc2)cc1S(=O)(=O)N1CCOCC1
x,1%,-0.7,x,0,x,x,x,0.69,CCN(C1CCCCC1)S(=O)(=O)c1ccc(C(=O)O)cc1
7,x,1.6,-6.3,x,i,15,5.0,0.63,CCOc1cc(C(=O)OCC(=O)Nc2ncc(Cl)c(C)c2Cl)ccc1OCC(=O)N1CCOCC1
11,x,-1.9,-1.1,-6,x,4,-13,0.71,CC(=O)N(CN1C(=O)CCC1=O)c1ccc(Cl)c(Cl)c1
9,4%,-1.4,-1.7,x,i,7,-1.4,0.66,Cc1cc(C)n2nc(C(=O)Nc3cccc(S(=O)(=O)N4CCOCC4)c3)nc2n1
-48&-68,0%,-2.9,22&5.0,x,i,-32&-46,2.8&1.6,x,C[C@H](CO)N1C[C@H](C)[C@H](CN(C)Cc2cccc(O)c2)OCc2ccccc2-c2c(n(C)c3ccccc23)C1=O
17,x,x,-2.2,x,i,4,-1.4,x,CCCC#Cc1ccc2c(c1)O[C@H](CN(C)C)[C@H](C)CN([C@@H](C)CO)S2(=O)=O
x,18%,1.6,x,2,x,x,x,0.76,Cc1cccc(C(=O)O)c1NC(=O)c1ccc(F)cc1
x,-3%,0.3,x,-6,x,x,x,0.68,CC1(C)CC(=O)C=C(N2CCCC2)C1
x,-2%,-0.6,x,-2,x,x,x,0.79,Cc1nc2cc(CO)ccc2s1

Part of the list above, field by field.
O=C1c2ccccc2C(O)N1Cc1cccs1 (centres undefined)
  Ecoli rRNA inh OD600: 5	Vif TR-FRET: 5%	HNF4A DNA FP: 3.7	Ecoli rRNA inh RFP: 1.7	ALR H2O2 inh: x	FGF22 binding: i	Ecoli rRNA inh: 0	AF4-AF9 inh: -2.0	Ecoli growth: 0.65
CCc1ccc(NC(=O)N2CCC(c3ccccc3)C2)cc1 (centres undefined)
  Ecoli rRNA inh OD600: 7	Vif TR-FRET: 1%	HNF4A DNA FP: 1.1	Ecoli rRNA inh RFP: -0.5	ALR H2O2 inh: x	FGF22 binding: i	Ecoli rRNA inh: -1	AF4-AF9 inh: -4.8	Ecoli growth: 0.69

Part of the list above in order of SMILES length, falling:
Ecoli rRNA inh OD600,Vif TR-FRET,HNF4A DNA FP,Ecoli rRNA inh RFP,ALR H2O2 inh,FGF22 binding,Ecoli rRNA inh,AF4-AF9 inh,Ecoli growth,mol
-48&-68,0%,-2.9,22&5.0,x,i,-32&-46,2.8&1.6,x,C[C@H](CO)N1C[C@H](C)[C@H](CN(C)Cc2cccc(O)c2)OCc2ccccc2-c2c(n(C)c3ccccc23)C1=O
17,x,x,-2.2,x,i,4,-1.4,x,CCCC#Cc1ccc2c(c1)O[C@H](CN(C)C)[C@H](C)CN([C@@H](C)CO)S2(=O)=O
11,x,-1.9,-1.1,-6,x,4,-13,0.71,CC(=O)N(CN1C(=O)CCC1=O)c1ccc(Cl)c(Cl)c1
